Arbovirus anti: arbovirus infection inhibition | 0.37% of 200,000 active | arbovirus infection cell-based antiviral screen | inhibition, % at 10 µM;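 active = inhibition from about 30%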;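 note: bluetongue infection of BSR cells; cell survival read as ATP light after 72 h; 0% = infected wells without compound and 100% = uninfected wells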
Mtb H37Rv: M. tuberculosis H37Rv growth inhibitors, H37Rv strain (AID 1626) | M. tuberculosis H37Rv growth inhibition; higher % means a stronger effect | inhibition, % at 10 µM, or IC50 in µM where a hit was titrated | 0.95% of 220,000 active;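 active = confirmed in a dose series; inconclusive = inhibition above 80% but not taken into the dose series; inactive = below 80% or under 30% at every dose of the series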;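 note: bacteria incubated seven days before Alamar blue readout; 0% = bacteria only wells and 100% = bacteria with antibiotic wells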
RecA intein inh: inhibitors of M. tuberculosis RecA intein splicing. 0.75% of 290,000 active. AID 2221. cell-free RecA intein splicing, fluorescence. inhibition, %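 (about 9 µM by stock and volumes)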. P9WHJ3; in the data active = inhibition above about 30%; inconclusive = no clear call, values can overlap the other calls;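 note: 0% = vehicle wells and 100% = reference inhibitor control wells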
Target sequence (P9WHJ3 whole entry, looked up): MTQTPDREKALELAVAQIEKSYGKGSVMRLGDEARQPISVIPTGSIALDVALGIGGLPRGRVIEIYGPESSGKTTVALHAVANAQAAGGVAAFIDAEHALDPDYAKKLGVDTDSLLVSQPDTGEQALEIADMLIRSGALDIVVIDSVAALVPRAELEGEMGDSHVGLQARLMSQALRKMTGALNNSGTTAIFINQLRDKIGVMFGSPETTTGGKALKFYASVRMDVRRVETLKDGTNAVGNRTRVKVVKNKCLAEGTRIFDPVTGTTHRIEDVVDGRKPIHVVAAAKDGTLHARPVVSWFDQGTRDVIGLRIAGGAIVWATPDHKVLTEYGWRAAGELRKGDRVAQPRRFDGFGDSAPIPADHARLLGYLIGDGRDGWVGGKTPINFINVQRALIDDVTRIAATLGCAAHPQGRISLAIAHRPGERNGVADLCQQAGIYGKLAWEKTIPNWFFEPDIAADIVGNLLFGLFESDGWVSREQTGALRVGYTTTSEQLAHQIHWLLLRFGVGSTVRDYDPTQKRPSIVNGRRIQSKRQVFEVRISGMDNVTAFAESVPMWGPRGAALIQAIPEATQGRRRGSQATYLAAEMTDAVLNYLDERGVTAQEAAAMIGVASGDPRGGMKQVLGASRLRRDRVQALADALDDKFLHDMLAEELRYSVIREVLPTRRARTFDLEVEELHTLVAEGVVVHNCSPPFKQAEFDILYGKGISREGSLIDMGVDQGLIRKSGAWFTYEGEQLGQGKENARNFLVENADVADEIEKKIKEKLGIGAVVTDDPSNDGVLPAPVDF
YopH PTP inh: blocks Yersinia enterocolitica YopH tyrosine phosphatase; fluorescence Ex485/Em525; inhibition, %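 (about 10 µM by stock and volumes)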; 0.16% of 140,000 active; AID 898;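 active = inhibition of 50% or more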;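 note: controls were vehicle for no effect and minimum signal wells for full effect; inactives centre near -20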
Mtb bLac sens: beta-lactam sensitization of Mtb H37Rv; M. tuberculosis H37Rv growth with meropenem, percent inhibition; hits of this screen are not shown here; inhibition, % at 25 µM; 0.27% of 330,000 active; AID 434955;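 active = about 74% or more and at least 40 points above the plate without the antibiotic, then above 30% in a dose series; inconclusive = first-round hits that could not be retested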;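 note: growth measured after seven days incubation then overnight dye step; 0% = bacteria only wells and 100% = bacteria with antibiotic; twin plates without the antibiotic show which effects depend on it; some results filed as inactive read as strong as hits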
Arbovirus anti repeat: also measured in Arbovirus anti; calls as there; inhibition, %; measured here: 10K subset replicate screen; many hits read low in the repeat;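 first of two repeat runs on a subset; 0% = infected and 100% = uninfected wells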
* = called active by the depositor; ? = inconclusive; · = no result given.

SMILES	Arbovirus anti	Mtb H37Rv	RecA intein inh	YopH PTP inh	Mtb bLac sens	others
CN(/N=C/c1ccccc1O)C(=S)c1ccccc1	·	·	-1.8	·	11
CC1CCc2nc3ccc(S(=O)(=O)N4CCC(C(=O)NC(C)c5ccccc5)CC4)cc3c(C(=O)O)c2C1 (configuration not stated)	·	·	-1.6	·	8
CN(C)C(=S)SCC(=O)Nc1cccc(C(F)(F)F)c1	7	5%	-0.9	-16	-1
Cc1c(Cl)c(C(F)(F)F)nn1CC(=O)NCc1ccccc1	1	-3%	0.7	-25	3
O=c1cc(N2CCC3(CC2)OCCO3)[nH]c(=O)n1-c1ccc(Br)cc1	-1	1%	-0.8	-22	·
O=C(Cn1c(=O)oc2ccccc21)N1CCCC1	·	·	-1.3	·	-9
Cc1cccnc1N(C(=O)Nc1cccc(Cl)c1)C1=NCC(C)(C)S1	4	1%	-1.7	-32	8
CCC12CC3CC(C1)CC(C(=O)NNC(N)=O)(C3)C2	·	-7%	·	·	-5
C=CCOc1ccc(/C=N/NC(=O)CN2CCOCC2)cc1OCC	-1	-5%	0.1	·	-7
COc1ccc(C2C(C#N)=C(N)N(c3ncn[nH]3)C3=C2C(=O)CCC3)cc1 (configuration not stated)	15	-1%	-5.7	·	-6
CCN(CC)CCn1c2ccccc2c2nc(C)sc21	-3	·	-0.9	-23	-5
Cc1cc(=O)[nH]c(SCC(=O)Nc2cccc(C(F)(F)F)c2)n1	11	-1%	1.6	-36	5
O=C(N/N=C/c1cn[nH]c1-c1ccc(Cl)cc1)c1ccc([N+](=O)[O-])cc1	-13	4%	4.1	·	6
O=C(CSc1nnc(CNC(=O)c2cccc(C(F)(F)F)c2)o1)NCC1CCCO1 (configuration not stated)	·	·	4.3	·	-15
COc1ccccc1NC(=O)c1ccc(C)c(S(=O)(=O)N2CCCCC2)c1	·	·	2.4	·	0
FC(F)(F)c1cccnc1Oc1ccc(C2=NCCS2)cc1	·	3%	1.1	·	-7
Cc1nn(-c2ccccc2)c2nc3c(cc12)C(=O)CCC3	3	-5%	1.0	-34	-3
CC(C)N(C(=S)Nc1cccc(S(=O)(=O)N(C)C)c1)c1ccccc1	·	-2%	0.9	·	-1
Cc1cc(C)nc(/N=C(\N)Nc2cccc(OCc3ccccc3)c2)n1	·	?	·	·	66
Cc1ccc(C(=O)NCC(c2ccco2)N2CCc3ccccc3C2)cc1 (configuration not stated)	·	·	5.2	·	0
Cc1cc(C)n(Cc2ccc(C(=O)N/N=C/c3ccc(-c4ccc([N+](=O)[O-])cc4)o3)o2)n1	·	·	-1.9	·	5
O=C(Cn1c(NCCO)nc2ccccc21)NCCc1ccc(F)cc1	5	4%	-0.5	-44	-8
Cc1ccc(S(=O)(=O)NC(=O)NCc2ccccn2)cc1	7	1%	0.5	-37	5
C=C1CCC[C@]2(C)C[C@H]3OC(=O)C(CNCC(C)C)[C@H]3CC12 (some centres not stated)	·	·	3.0	·	-5
CCN(C(=O)COC(=O)c1cc2ccccc2cc1O)C1CCS(=O)(=O)C1 (configuration not stated)	5	6%	-3.2	15	3
Cc1ccc(Cn2c(O)c(N=NC(=S)Nc3ccccc3F)c3cc(S(=O)(=O)N4CCOCC4)ccc32)cc1	-8	14%	5.1	·	·
CN1CCN(C(=O)C2=C[C@@H](c3ccc(Br)cc3)C[C@@H](OCc3ccc(CO)cc3)O2)CC1	-8	2%	0.6	·	-13
CCCCOc1ccc(-c2nc(-c3cccnc3)no2)cc1	23	3%	2.5	7	70	Arbovirus anti repeat=24
O=C(C1CCOCC1)N1CCCC(N2CCN(c3ccc(F)cc3)CC2)C1 (configuration not stated)	·	·	0.3	·	7
O=S(=O)(Cc1nnnn1-c1ccccc1)c1ccc(Cl)cc1	·	·	-1.4	·	-3
CSc1nc(C=Nc2ccccc2Cl)c(O)n1Cc1cccc(Cl)c1	·	7%	1.1	·	2
CCOc1ccc(C(=O)NCCN2CCOCC2)cc1	1	-5%	0.7	·	0
O=C(Cn1c(=S)[nH]c2ccccc21)c1ccccc1	-13	-7%	-1.9	-20	-10
COc1ccc(C(=O)NCc2cccnc2)cc1S(=O)(=O)N1CCOCC1	10	-1%	2.0	-22	-2
O=C(NCCNCCO)C1(C(F)(F)F)C/C(=C\CCO)CCCO1 (configuration not stated)	·	-2%	-3.9	·	-10
Cc1ccc(CNC(=O)CCNC(=O)Cn2ccc3ccccc3c2=O)cc1	5	-3%	3.7	-6	-2
COCC(=O)N1CCC(Oc2ccc(C(=O)N3CCSCC3)cc2)CC1	·	·	-3.2	·	-7
N#CCc1nc(-c2cc3ccccc3oc2=O)cs1	-6	-5%	1.0	·	-3
C/C(CC(=O)Nc1cccnc1)=N\NC(=O)C(=O)NC(C)C	·	-1%	-1.5	·	-3
O=C(O)c1c[nH]c2ccc(S(=O)(=O)N3CCN(c4ccc(F)cc4)CC3)cc2c1=O	8	-10%	-4.1	-21	-5
O=c1[nH]c2ccc(Br)cc2c(-c2ccccc2)c1N1CCOCC1	3	·	0.2	-30	-3	Arbovirus anti repeat=1
Cc1ccc(N2C(=O)c3oc4ccccc4c(=O)c3C2c2cccc(O)c2)nc1 (configuration not stated)	1	-3%	-0.4	-14	3	Arbovirus anti repeat=-8
Cc1ccc(OCCCNC2CCCC2)cc1	10	-7%	-0.6	-18	-4
CC1CCN(CCNC(=O)c2ccc3c(=O)n(Cc4ccc(Cl)cc4)c(=S)[nH]c3c2)CC1	·	·	-0.5	·	59
c1cncc(-c2nnc(SCc3nc4ccccc4[nH]3)o2)c1	3	2%	1.4	5	14
CC(C)(C)c1ccc(S(=O)(=O)NCC2CCCO2)cc1 (configuration not stated)	·	·	-1.4	·	5
CC(C)C(=O)Nc1nnc(CCN2CCCCC2)s1	-3	-3%	0.6	3	-18
ClCC1CSC(=NC23CC4CC(CC(C4)C2)C3)O1 (configuration not stated)	-1	-8%	-2.9	·	7
CCCC1(c2ccccc2)NC(=O)N(CC(=O)c2[nH]c(C)c(C(=O)OCC)c2C)C1=O (configuration not stated)	-16	8%	-0.5	-25	12
CCCC1=C(C(=O)OCC)C(c2ccc(OC)c(C)c2OC)C(C#N)=C(N)O1 (configuration not stated)	-5	1%	-1.2	-6	-1

(more compounds)
SMILES	Arbovirus anti	Mtb H37Rv	RecA intein inh	YopH PTP inh	Mtb bLac sens	others
CCOc1ccc(C(C(=O)NC2CCCCC2)N(C(=O)c2ccccn2)c2cccnc2)cc1 (configuration not stated)	7	4%	0.6	·	1
CS(=O)(=O)Nc1ccc(C(=O)Nc2ccc3ccccc3c2)cc1	·	·	-2.8	·	-1
O=C(/C=C/c1c[nH]c2ccccc12)c1ccccc1	5	32%	-2.2	-34	55
CCOc1ccc(NC(=O)c2cc(Cl)nc3ccccc23)cc1	·	4%	1.4	·	-3
COc1ccc(C(NC(=O)c2ccc(-c3ccccc3)cc2)c2ccccc2)cc1 (configuration not stated)	-5	·	0.5	-25	-2
CCOc1ccccc1NC(=O)N1CCCc2ccccc21	·	·	-6.8	·	0
CCOC(=O)N1CCC(c2cc(=O)n3[nH]ccc3n2)CC1	-1	3%	0.0	-39	1
C=CCNCCCCOc1ccc(OCc2ccccc2)cc1	-28	5%	0.5	·	2
O=C(Nc1ccccc1)C(Cc1cccs1)c1nn[nH]n1 (configuration not stated)	6	-11%	0.8	0	2
O=C(NCCCC(=O)N1CCOCC1)c1cccnc1	4	-2%	0.2	-28	-5

Reprinted at random: 2 records from the list, in no set order.
SMILES	Arbovirus anti	Mtb H37Rv	RecA intein inh	YopH PTP inh	Mtb bLac sens	others
O=C(C1CCOCC1)N1CCCC(N2CCN(c3ccc(F)cc3)CC2)C1 (configuration not stated)	·	·	0.3	·	7
O=c1[nH]c2ccc(Br)cc2c(-c2ccccc2)c1N1CCOCC1	3	·	0.2	-30	-3	Arbovirus anti repeat=1

(list continues)
SMILES	Arbovirus anti	Mtb H37Rv	RecA intein inh	YopH PTP inh	Mtb bLac sens	others
COc1ccc(N2CCN(c3nc(NCCc4ccc(OC)c(OC)c4)nc(OC)n3)CC2)cc1	1	34%	-0.4	1	7
CC(C)CCN1CCC(n2nccc2NC(=O)C2CCOC2)CC1 (configuration not stated)	·	·	-0.7	·	1
Cn1ccnc1SCc1ccc([N+](=O)[O-])cc1	1	-5%	-0.5	-24	-1
O=C1CC(C(=O)Nc2ccc(C(=O)O)cc2)C(c2ccccc2)O1 (configuration not stated)	1	5%	0.4	1	-8
O=C(CN1C(=O)C2C3CCC(C3)C2C1=O)OCC(=O)c1cccc([N+](=O)[O-])c1 (configuration not stated)	-12	4%	0.3	-38	-5
CCNc1nc2nonc2nc1NCC	2	-4%	4.4	-37	-9
CCOC(=O)C1CCN(C(=O)c2cnn3c(C)cc(C)nc23)CC1	-1	-9%	-0.4	-40	-4
C=CCn1c(SCc2ccccc2C#N)nnc1-c1ccccc1O	-1	-8%	1.4	-27	-8
CCCc1nc2ccccc2c(=O)n1-c1ccc(O)cc1	2	-11%	-0.4	·	0
O=C(CSc1nc2ccccc2n1CC(=O)N1CCCC1)Nc1nccs1	-5	-1%	5.2	-29	-5
COc1ccccc1-c1c(C(F)(F)F)oc2cc(OC(=O)c3cccc([N+](=O)[O-])c3C)ccc2c1=O	5	-5%	8.9	-48	-11
Cc1c(NC(=O)c2cc3ccccc3oc2=O)c(=O)n(-c2ccccc2)n1C	4	-6%	0.5	6	11
COc1ccc2c(c1OC)C(C1c3c(cc4c(c3OC)OCO4)CCN1C)OC2=O (configuration not stated)	-4	-5%	-2.7	-13	-6
COc1ccc(S(=O)(=O)NCCC(=O)NCc2cccs2)cc1	0	5%	0.8	-42	-7
O=C(NCc1ccccc1OC(F)(F)F)C1CCC(=O)N(Cc2ccccn2)C1 (configuration not stated)	·	·	1.0	·	5
O=C(O)CCN1C(=O)c2ccc(NC(=O)CCc3ccccc3)cc2C1=O	·	·	-1.4	·	-7
CCN(CC)C(=O)CSc1ncnc2c(-c3ccc(OC)cc3)nsc12	-6	-4%	0.2	·	-8
CCn1c(=O)cc(SCC(=O)N2CCN(C(=O)c3ccco3)CC2)c2ccccc21	-12	0%	-0.9	-3	6
CC(NC(=O)c1cccc(S(=O)(=O)N2CCN(Cc3ccccc3)CC2)c1)c1ccc(Br)cc1 (configuration not stated)	·	·	7.9	·	-19
CC(=O)Nc1nc(C)c(Cc2ccccc2)c(=O)[nH]1	0	8%	-1.1	-28	-9
CCCCCn1c(S(=O)(=O)O)nc2ccccc21	3	2%	0.8	-37	?
Cc1cc(C)nc(SCC(=O)N(C)CC(=O)Nc2c(Cl)cccc2Cl)n1	·	·	0.7	·	-12
Cc1ccc(C)c(NC(=O)C(C)CC2COCCO2)c1 (configuration not stated)	3	-4%	0.7	-16	-2
N/C(=N\OC(=O)C1CCCCC1)c1ccc(Cl)cc1	·	·	-0.5	·	-4

Among those listed so far, ten have a Cl atom:
SMILES	Arbovirus anti	Mtb H37Rv	RecA intein inh	YopH PTP inh	Mtb bLac sens	others
Cc1c(Cl)c(C(F)(F)F)nn1CC(=O)NCc1ccccc1	1	-3%	0.7	-25	3
Cc1cccnc1N(C(=O)Nc1cccc(Cl)c1)C1=NCC(C)(C)S1	4	1%	-1.7	-32	8
O=C(N/N=C/c1cn[nH]c1-c1ccc(Cl)cc1)c1ccc([N+](=O)[O-])cc1	-13	4%	4.1	·	6
O=S(=O)(Cc1nnnn1-c1ccccc1)c1ccc(Cl)cc1	·	·	-1.4	·	-3
CSc1nc(C=Nc2ccccc2Cl)c(O)n1Cc1cccc(Cl)c1	·	7%	1.1	·	2
CC1CCN(CCNC(=O)c2ccc3c(=O)n(Cc4ccc(Cl)cc4)c(=S)[nH]c3c2)CC1	·	·	-0.5	·	59
ClCC1CSC(=NC23CC4CC(CC(C4)C2)C3)O1 (configuration not stated)	-1	-8%	-2.9	·	7
CCOc1ccc(NC(=O)c2cc(Cl)nc3ccccc23)cc1	·	4%	1.4	·	-3
Cc1cc(C)nc(SCC(=O)N(C)CC(=O)Nc2c(Cl)cccc2Cl)n1	·	·	0.7	·	-12
N/C(=N\OC(=O)C1CCCCC1)c1ccc(Cl)cc1	·	·	-0.5	·	-4

Screening results: PubChem, several laboratories

Only part of the results is shown. The share of hits here may be higher or lower than overall.
